BJeLR lethal = kills HRASV12-expressing BJeLR cells; BJeLR (HRASV12) viability, CellTiter-Glo ATP luminescence, 48 h; reference of the scale not given here; inhibition, % (no concentration beside the values); actives 0.17% (n = 300,000);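 active = replicate mean above 50%; inconclusive = above 50% but judged a plate artefact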;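 note: 50 nL library stock added to about 25 µL; numbers are from one replicate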
PrP UTR inh = inhibition of PrP 5' UTR reporter expression; cell-based PrP 5' UTR mRNA reporter, plate reader; inhibition, % (concentration not given with the values); actives 0.35% (n = 340,000); AID 488862;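 active = every replicate at 50% or more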;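 note: 0 = median of the neutral control wells; tested in H4 reporter cells; numbers are from one replicate; inactives centre near -14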
Mtb hypoxia inh = reduces hypoxia-regulated biosensor signal in M. tuberculosis. M. tuberculosis hypoxia-regulated fluorescent reporter, fluorescence. fluorescence inhibition, % (no concentration beside the values). actives 0.1% (n = 300,000). AID 1159583;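 active = 35 to 45% if threefold the growth effect, above 45% if 1.5-fold the growth effect; inactive = the rest, general growth blockers included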;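 note: wells of about 50 µL received 100 nL stock; 0% = vehicle wells and 100% = reference inhibitor wells; whole bacteria with a GFP reporter of the hypoxia response; strong numbers were not always called active; many hits fall short of the cut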
ugtP null kill = kills S. aureus RN4220 lacking UgtP; S. aureus RN4220 ugtP deletion, OD600 growth, 16 h; some inactives read as strong as hits; growth inhibition, % (no concentration beside the values); actives 0.54% (n = 330,000); AID 1259309;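 active = z-score under -3 and OD600 up to 0.15 on both plates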;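 note: plate controls were untreated wells for no effect and antibiotic for full effect; wells of about 80 µL received 100 nL stock; the first replicate is given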
Sa RN4220 lethal = kills Staphylococcus aureus RN4220; S. aureus RN4220 growth, OD600, 16 h; inhibition, % (concentration not given with the values); actives 0.33% (n = 330,000); AID 1259311;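 active = z-score of -3 or lower and OD600 up to 0.18 on both plates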;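 note: plate controls were untreated cells for no effect and reference antibiotic for full effect; stock transfer was 100 nL into about 80 µL; one replicate is shown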
Bead autofluor = flagged as autofluorescent in microsphere protease counterscreen; compound autofluorescence counterscreen, microsphere flow cytometry; active compounds read high; fluorescence intensity (no concentration beside the values); actives 3.1% (n = 360,000);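 active = at least 3 SD above the mean of all compounds, about 16000 in these data; inconclusive = too few beads counted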;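 note: 100 nL of 1 mM stock went into each well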
Mtb hypoxia inh growth = further read-out of Mtb hypoxia inh, marked with its call; growth inhibition, %; measured here: M. tuberculosis growth (absorbance);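 0% = vehicle and 100% = reference antibiotic; read after six days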
Numbers without * were called inactive; ? = inconclusive; nt = no result given; & = joins results of further samples.

(1) CC(OC(=O)Cc1ccc(Cl)cc1)C(=O)NCCC1=CCCCC1 (stereo not drawn)
(2) CCOC(=O)c1ccc(NC(=O)c2cccnc2)cc1
(3) CN(C(=O)c1cccc(C#N)c1)c1nnc(C2CCCO2)s1 (stereo not drawn)
(4) COc1ccc(-n2nc(C(C)=O)c(=O)[nH]c2=O)cc1
(5) CC(=O)NC(CC(C)C)C(=O)NC(CO)C(=O)NC(CCC(=O)O)C(=O)NC(C)C(=O)NC(CC(C)C)C(N)=O (stereo not drawn)
(6) CC(C)CC(=O)N1CCN(S(=O)(=O)c2ccc(F)cc2)CC1

Compound	1	2	3	4	5	6
BJeLR lethal	-20.2	7.2	6.5	8.2	14.4	3.0
PrP UTR inh	6.8	-19.0	-1.0	-13.0	-10.2	-44.3
Mtb hypoxia inh	3.1	10.6	nt	6.5	nt	10.0
Mtb hypoxia inh growth	4.9	-3.9	nt	8.6	nt	5.5
ugtP null kill	-4.4	4.2	-0.2	-1.5	nt	11.5
Sa RN4220 lethal	2.1	5.3	-0.1	7.4	nt	4.4
Bead autofluor	2428	4564	3834	1910	3494	4951

(7) CCN(CC(=O)Nc1c(F)cccc1F)C(=O)c1cccnc1Sc1ccccc1
(8) COCCNC(=O)CN(C(=O)Cn1nnc2ccccc21)c1ccccc1
(9) Cc1cc(/C=C(\C#N)C(=O)NC2CCCCCC2)c(C)n1C
(10) CCCCOc1ccc(C2(C)NC(=O)N(C)C2=O)cc1 (stereo not drawn)
(11) C=CCN(CC=C)CCCOc1ccc(C)cc1OC
(12) CCOC(=O)c1sc(NC(=O)c2cc(-c3ccccc3C)nc3ccccc23)c(C#N)c1C

Compound	7	8	9	10	11	12
BJeLR lethal	-8.1	3.4	0.7	-3.2	-1.7	23.9
PrP UTR inh	-7.5	-14.7	-6.3	-23.7	-7.3	-5.3
Mtb hypoxia inh	-7.8	nt	-1.7	16.3	2.0	nt
Mtb hypoxia inh growth	-2.0	nt	9.1	2.5	7.8	nt
ugtP null kill	2.2	4.2	-1.6	8.5	6.3	-4.2
Sa RN4220 lethal	3.0	5.3	1.7	5.4	3.8	11.8
Bead autofluor	?	3573	1865	3233	2261	2529

(13) CCO[C@H]1OC(C(=O)O)=C[C@@H](c2coc3ccccc3c2=O)[C@@H]1CCCO
(14) O=C(Nc1nn[nH]n1)c1cccc(Oc2ccccc2)c1
(15) CC(C)CN(C(=O)COC(=O)C12CC3CC(CC(C3)C1)C2)c1c(N)n(Cc2ccccc2)c(=O)[nH]c1=O
(16) CCOC(=O)C1CCN(C(=O)CCCCn2c(=O)[nH]c3ccccc3c2=O)CC1
(17) COc1ccc(C(=O)NCCc2nnc(SCC(=O)Nc3ccc(Br)cc3)n2C)cc1
(18) CCc1ccccc1OCCCCCNCCO

Compound	13	14	15	16	17	18
BJeLR lethal	0.3	-5.8	0.5	3.1	0.5	5.9
PrP UTR inh	-12.6	5.5	-19.8	-0.8	-18.8	nt
Mtb hypoxia inh	nt	14.1	-9.5	1.4	7.0	9.3
Mtb hypoxia inh growth	nt	4.7	-3.0	7.2	11.6	7.7
ugtP null kill	nt	-7.3	9.4	2.2	0.8	20.9
Sa RN4220 lethal	nt	-7.4	1.4	-0.5	-4.0	4.9
Bead autofluor	3538	3097	?	3701	9873	9837

(19) Cc1c(C(=O)N2CCN(c3ccc(F)cc3)CC2)oc2c1C(=O)CCC2
(20) O=S(=O)(NCCc1cn2ccccc2n1)c1ccc2c(c1)CCCC2
(21) CC(=O)C(Cc1ccccc1)NC(=O)COC(=O)CCN1C(=O)C2CC=CCC2C1=O (stereo not drawn)
(22) Fc1ccccc1CCNCc1cccc2ccccc12
(23) Cc1c(C(=O)NC(C)c2ccc(-n3ccnc3)cc2)cccc1[N+](=O)[O-] (stereo not drawn)
(24) Cc1cccc(CS(=O)(=O)c2ncc(CO)n2C)c1

Compound	19	20	21	22	23	24
BJeLR lethal	-7.5	-1.7	4.5	0.9	1.5	-1.7
PrP UTR inh	-21.5	22.1	-29.1	-11.0	-9.9	-25.1
Mtb hypoxia inh	11.8	7.3	-10.6	-6.8	4.2	0.3
Mtb hypoxia inh growth	-4.6	8.9	-5.4	-3.9	8.9	0.6
ugtP null kill	-2.0	9.6	3.3	1.6	1.5	0.7
Sa RN4220 lethal	6.6	-3.7	-0.7	4.2	3.0	1.4
Bead autofluor	5341	4334	5503	2531	5682	4031

(25) O=c1[nH]c(N/N=C\c2ccc3c(c2)OCO3)nc2ccccc12
(26) Cc1ccc(-n2nc3c(c2NC(=O)C2CC2)CS(=O)(=O)C3)cc1C
(27) O=C(CSc1ncccn1)NCc1ccc(F)cc1
(28) Cc1[nH]c2ccccc2c1C(=O)C(=O)NCc1ccco1
(29) COc1cccc2sc(N3CCN(C(=O)c4ccc([N+](=O)[O-])o4)CC3)nc12
(30) CC1CN=C2N1CC(Cc1ccc(O)cc1)N2CCNC(=O)CCC1CCCCC1 (stereo not drawn)

Compound	25	26	27	28	29	30
BJeLR lethal	0.2	-14.0	-10.6	6.6	6.2	nt
PrP UTR inh	-56.4	-2.2	8.5	-3.4	-29.8	nt
Mtb hypoxia inh	nt	3.0	-6.2	13.5	nt	6.2&6.5
Mtb hypoxia inh growth	nt	0.4	-0.4	7.8	nt	8.2&-0.9
ugtP null kill	nt	0.7	0.4	0.2	1.0	10.8&-3.4
Sa RN4220 lethal	nt	4.0	1.3	1.4	8.1	8.2&2.1
Bead autofluor	2345	5058	11605	2510	5490	nt

(31) O=C(Nc1nnc(-c2ccco2)o1)c1ccc([N+](=O)[O-])s1
(32) Cn1c(SCCc2ccc([N+](=O)[O-])cc2)nccc1=O
(33) Cc1ccc(-c2nnc(NC(=O)c3ccc([N+](=O)[O-])o3)o2)c(C)c1
(34) O=C(CN1C(=O)c2ccccc2C1=O)N1CCN(S(=O)(=O)c2ccccc2)CC1
(35) Cn1ncc2c(Nc3ccc(-c4ccccc4)cc3)ncnc21
(36) O=C(CSc1nnc(SCc2ccccc2)s1)NN=C/C=C/c1ccco1

Compound	31	32	33	34	35	36
BJeLR lethal	20.5	5.2	-5.6	7.1	27.4	nt
PrP UTR inh	-10.2	-8.8	-21.4	-3.7	-21.7	nt
Mtb hypoxia inh	6.7	12.5	nt	-0.8	2.1	6.6
Mtb hypoxia inh growth	8.9	5.4	nt	-5.3	0.3	0.9
ugtP null kill	4.8	-0.8	92.4*	4.9	2.7	-1.8
Sa RN4220 lethal	17.2	3.7	-3.0	2.8	-1.8	9.4
Bead autofluor	3277	3299	?	5931	11828	nt

(37) Cc1nc2ccccc2n1C(=NS(=O)(=O)c1ccc(Br)cc1)c1ccccc1
(38) CCOc1ccc(N(CC(=O)NCc2cccnc2)S(=O)(=O)c2ccc(F)cc2)cc1
(39) COc1ccc(C(=O)CN2C(=O)NC(C)(c3ccccc3)C2=O)cc1OC (stereo not drawn)
(40) CCn1cc(CNC(=O)c2c(-c3c(Cl)cccc3Cl)noc2C)c(C)n1
(41) Cn1c(=O)c(=O)n(C)c2cc(S(=O)(=O)NCCOc3ccccc3Cl)ccc21
(42) Cc1c(C(=O)OCC2CCCO2)[nH]c2c1C(=O)CC(c1ccc(N(C)C)cc1)C2 (stereo not drawn)

Compound	37	38	39	40	41	42
BJeLR lethal	nt	-0.1	0.4	-2.8	5.7	-3.0
PrP UTR inh	nt	-16.2	-6.9	-4.7	-15.5	-11.6
Mtb hypoxia inh	-0.4	1.9	4.5	-1.5	-3.0	nt
Mtb hypoxia inh growth	10.4	-3.1	2.2	2.4	2.0	nt
ugtP null kill	-13.6	-0.6	2.2	1.0	7.6	-6.0
Sa RN4220 lethal	-5.9	3.4	2.3	9.6	3.6	-4.6
Bead autofluor	nt	?	2944	2081	4568	4439

(43) CC/C(=N\NC(N)=O)c1c(O)[nH]c(=O)[nH]c1=O
(44) O=S1(=O)CCN2C=C(Cl)C=C(Cl)C2=N1
(45) N=C1c2ccccc2CN1NC(=O)c1ccc(Br)cc1
(46) CCCCCn1c(CN2CC(C)OC(C)C2)nc2c1c(=O)n(C)c(=O)n2C (stereo not drawn)
(47) Nn1c(SCC(=O)Nc2ccc(F)cc2F)nnc1-c1cccnc1
(48) Cn1[nH]c(=O)c2ccccc2c1=O

Compound	43	44	45	46	47	48
BJeLR lethal	4.1	-0.1	2.5	12.0	2.8	6.2
PrP UTR inh	-17.4	3.0	-29.7	-13.0	-12.1	-14.0
Mtb hypoxia inh	-4.5	12.9	2.9	4.1	5.1	4.3
Mtb hypoxia inh growth	3.1	5.7	0.8	3.8	10.4	6.1
ugtP null kill	2.4	6.7	0.7	-4.8	0.0	0.8
Sa RN4220 lethal	2.0	0.3	8.5	1.3	2.0	3.3
Bead autofluor	?	4331	10471	3992	10868	11549

(49) O=C(Cc1cccs1)N/N=C\c1ccc([N+](=O)[O-])s1
(50) CCC(C)Cn1c(O)cc2nn(-c3nc4ccccc4s3)c(=O)c-2c1C (stereo not drawn)
(51) O=C(NCC1(c2ccccc2)CCCC1)C1(c2ccccc2)CCCC1
(52) C=CC[C@H]1Cc2c(cccc2[N+](=O)[O-])[C@H](CC=C)N1
(53) COc1ccc(OCC(=O)Nc2ccccc2C(=O)N2CCCC2)cc1
(54) CC1CCCN(C(=O)c2ccc(NC(=O)CC3SC(N4CCCC4)=NC3=O)cc2)C1 (stereo not drawn)

Compound	49	50	51	52	53	54
BJeLR lethal	2.6	9.4	9.6	-8.8	-1.0	-4.2
PrP UTR inh	-24.0	92.2*	-28.4	-30.2	-5.9	4.8
Mtb hypoxia inh	nt	-11.8	10.7	14.7	nt	-1.3
Mtb hypoxia inh growth	nt	-4.5	5.2	5.6	nt	3.9
ugtP null kill	nt	-4.1	-14.4	-1.4	8.0	3.2
Sa RN4220 lethal	nt	10.2	-7.0	3.1	0.1	-0.7
Bead autofluor	4354	3229	2593	4692	2711	5738

A section taken from the entries so far:
(5) CC(=O)NC(CC(C)C)C(=O)NC(CO)C(=O)NC(CCC(=O)O)C(=O)NC(C)C(=O)NC(CC(C)C)C(N)=O (stereo not drawn)
(6) CC(C)CC(=O)N1CCN(S(=O)(=O)c2ccc(F)cc2)CC1
(7) CCN(CC(=O)Nc1c(F)cccc1F)C(=O)c1cccnc1Sc1ccccc1
(8) COCCNC(=O)CN(C(=O)Cn1nnc2ccccc21)c1ccccc1

Compound	5	6	7	8
BJeLR lethal	14.4	3.0	-8.1	3.4
PrP UTR inh	-10.2	-44.3	-7.5	-14.7
Mtb hypoxia inh	nt	10.0	-7.8	nt
Mtb hypoxia inh growth	nt	5.5	-2.0	nt
ugtP null kill	nt	11.5	2.2	4.2
Sa RN4220 lethal	nt	4.4	3.0	5.3
Bead autofluor	3494	4951	?	3573

(next part)
(55) C=CCOC(=O)Nc1snnc1C
(56) CC(=O)N1CCN(S(=O)(=O)c2ccc3c(c2)OCCO3)CC1
(57) CCOC1OC(C(=O)N2CCN(Cc3ccccc3)CC2)=CC(c2cn(C(C)=O)c3ccccc23)C1CCCO (stereo not drawn)
(58) O=C1CC(c2ccccc2)N1c1ccccc1 (stereo not drawn)
(59) C[C@H](C(=O)NCc1ccccc1)C(=O)c1ccccc1

Compound	55	56	57	58	59
BJeLR lethal	-1.1	nt	nt	-4.2	2.2
PrP UTR inh	-22.1	-10.4	nt	-7.5	-3.5
Mtb hypoxia inh	nt	6.4	1.6&3.9	6.1	-8.3
Mtb hypoxia inh growth	nt	-2.7	13.7&4.0	6.3	-8.3
ugtP null kill	1.6	7.7	-1.3&4.1	2.6	13.3
Sa RN4220 lethal	1.3	3.6	1.6&4.3	5.9	6.1
Bead autofluor	4941	nt	nt	2486	nt
